Measles inh = inhibitors of measles virus growth in infected cells; 33,000 compounds, 0.1% hits; infected Vero cells, GFP fluorescence, 64 h; hits give low values; z-score (no concentration beside the values); AID 745;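 active means z-score under -3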;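 further: score is relative to mean and SD of the compound wells of a plate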
Numbers without * were called inactive.

Cn1c(SCC(=O)Nc2cc(C(F)(F)F)ccc2Cl)nc2c([nH]c3ccccc32)c1=O was read as Measles inh -1.8.
COc1ccc(S(=O)(=O)Nc2cc(C(=O)NCc3ccc4c(c3)OCO4)ccc2N2CCOCC2)cc1 was read as Measles inh -1.3.
For O=C(CCN1C(=O)C2C3C=CC(C3)C2C1=O)N1CCN(c2ccc(F)cc2)CC1 (stereo not drawn) the results were Measles inh 1.5.
For CC1=C(C(=O)Nc2ccccn2)C(c2ccccc2Cl)C2=C(CC(C)(C)CC2=O)N1 (stereo not drawn) the results were Measles inh 1.4.
Screening CCc1ccc(N=Cc2ccc(Br)cc2)cc1 returned Measles inh 0.66.
`Cc1cccc(NS(=O)(=O)c2cccnc2)c1C` gave Measles inh -1.2.
CC(C)Cn1c(C(C)NC(=O)c2ccccc2)nc2ccccc21 (stereo not drawn) was read as Measles inh 1.7.
CCOC(=O)c1ccccc1NC1OC(=O)c2ccccc21 (stereo not drawn) was read as Measles inh -1.5.
CC1CCCCC1NC(=O)c1ccc(CSCc2ccc(Cl)cc2)o1 (stereo not drawn) was read as Measles inh 0.12.
CCN(CC)c1nc2c(c(=O)n(C)c(=O)n2C)n1CC(=O)c1ccccc1 was read as Measles inh 0.2.
`Cc1ccc(C)c(N(C)C(=O)c2cc3cc4ccc(C)cc4nc3o2)c1` gave Measles inh -0.31.
Screening Cc1ccc(N2C(=O)CSC2c2ccccc2[N+](=O)[O-])cc1Cl (stereo not drawn) returned Measles inh 0.8.
`CC(=O)Nc1ccc(Cl)cc1C(=O)O` gave Measles inh 0.42.
For COc1ccc(CCNC(=O)C2CCN(S(=O)(=O)c3ccc(F)cc3)CC2)cc1OC the results were Measles inh 0.06.
`CC(C)C(Nc1ncnc2ccccc12)C(=O)O` (stereo not drawn) gave Measles inh 0.46.
O=c1oc2ccc(Cl)cc2cc1-c1nnc(Nc2ccccc2F)s1 was read as Measles inh 0.65.
For COc1ccc(NC(=O)c2sc3nc(-c4ccc(OC)cc4)cc(C(F)(F)F)c3c2N)cc1 the results were Measles inh 2.
Screening CC(C)(C)NC(=O)C1C(=O)NC2(C)CC1c1ccccc1O2 (stereo not drawn) returned Measles inh -0.12.
COc1ccc(NC(=O)C2CCCN(S(=O)(=O)c3cccs3)C2)cc1 (stereo not drawn) was read as Measles inh -0.76.
CCOc1ccc(C2/C(=C(\O)c3ccccc3)C(=O)C(=O)N2CCO)cc1 (stereo not drawn) was read as Measles inh 0.34.
`CC(C)c1ccc(S(=O)(=O)N2CCN(CCC(=O)Nc3ccc(N(C)C)cc3)CC2)cc1` gave Measles inh -1.1.
COc1ccc(S(=O)(=O)N(CC(=O)N(C)Cc2ccccc2)c2ccc(C)cc2)cc1 was read as Measles inh -0.85.
For CN1CCN(Cc2c(O)ccc3c(=O)c(-c4ccc(Cl)cc4)coc23)CC1 the results were Measles inh 1.1.
CCCCOCCOC(=O)CN1C(=O)c2ccc(Br)cc2C1=O was read as Measles inh -0.39.

Reprinted from the part before: seven entries, followed by the next part.
Screening CC(C)(C)NC(=O)C1C(=O)NC2(C)CC1c1ccccc1O2 (stereo not drawn) returned Measles inh -0.12.
COc1ccc(NC(=O)C2CCCN(S(=O)(=O)c3cccs3)C2)cc1 (stereo not drawn) was read as Measles inh -0.76.
CCOc1ccc(C2/C(=C(\O)c3ccccc3)C(=O)C(=O)N2CCO)cc1 (stereo not drawn) was read as Measles inh 0.34.
`CC(C)c1ccc(S(=O)(=O)N2CCN(CCC(=O)Nc3ccc(N(C)C)cc3)CC2)cc1` gave Measles inh -1.1.
COc1ccc(S(=O)(=O)N(CC(=O)N(C)Cc2ccccc2)c2ccc(C)cc2)cc1 was read as Measles inh -0.85.
For CN1CCN(Cc2c(O)ccc3c(=O)c(-c4ccc(Cl)cc4)coc23)CC1 the results were Measles inh 1.1.
CCCCOCCOC(=O)CN1C(=O)c2ccc(Br)cc2C1=O was read as Measles inh -0.39.
For CN(CC(=O)O)c1ccccc1C(=O)O the results were Measles inh -0.02.
Screening O=C1c2cc3ccccc3cc2C(=O)N1c1ccc2ccccc2c1 returned Measles inh -0.13.
`COCc1cc(C)nc2sc(C(=O)OC)c(N)c12` gave Measles inh 0.72.
For COc1ccc(S(=O)(=O)CCC(=O)N2CCN(c3cccc(C(F)(F)F)c3)CC2)cc1 the results were Measles inh 1.1.
For Cc1cccc(C2NC(=O)c3c(sc4c3CCN(C)C4)N2)c1O (stereo not drawn) the results were Measles inh 0.64.
Cc1ccc(S(=O)(=O)CCC(=O)NCc2ccccc2Cl)cc1 was read as Measles inh 0.48.
Screening COc1ccc(-n2c(=O)c3ccccc3n(CC(=O)N3CCCCC3C)c2=O)cc1 (stereo not drawn) returned Measles inh 2.5.
`Cc1cccc(N(CC(=O)Nc2ccccc2C(F)(F)F)S(C)(=O)=O)c1C` gave Measles inh 0.04.
CC1C(=O)C(C)C(c2ccccc2O)NC1c1ccccc1O (stereo not drawn) was read as Measles inh -0.93.
CCCN(CCC)S(=O)(=O)c1ccc(Cl)c([N+](=O)[O-])c1 was read as Measles inh -2.
For CCCC(=O)Nc1ccc(S(=O)(=O)N2CCC(C)CC2)cc1 the results were Measles inh 0.26.
For Cc1cc(C)cc(NS(=O)(=O)c2ccc3[nH]cc(C(=O)NCc4ccccc4Cl)c(=O)c3c2)c1 the results were Measles inh 0.26.
CC1=C(C(=O)Nc2cccc(C(F)(F)F)c2)C(c2ccc(F)cc2)C2=C(CCCC2=O)N1 (stereo not drawn) was read as Measles inh 0.86.
For O=C(NCc1ccco1)c1ccc2c(=O)n(C3CCCC3)c(=O)[nH]c2c1 the results were Measles inh -0.16.
Screening O=c1c2cccnc2[nH]c(=S)n1-c1ccncc1 returned Measles inh 0.54.
Screening NC(N)=Nc1nc(-c2ccccc2)c2cc(Cl)ccc2n1 returned Measles inh -0.62.
`COc1ccccc1NC(=O)C1=C(C)Nc2nc3ccccc3n2C1c1cccc([N+](=O)[O-])c1` (stereo not drawn) gave Measles inh 0.71.
Screening CC(Cl)=CCN1C(=O)C(=O)c2cccc(C)c21 returned Measles inh -0.74.
Cc1ccc(N=Cc2ccc(O)cc2)cc1 was read as Measles inh 0.64.
Screening CCn1c(C=Cc2cn(Cc3ccccc3)c3ccccc23)nc2ccc(I)cc2c1=O returned Measles inh -1.3.
For NC(=O)c1sc2nc3c(c(-c4ccco4)c2c1N)CCC3 the results were Measles inh -0.91.
`Cn1c(=O)[nH]c(=O)c2c1[nH]c(=S)n2C` gave Measles inh -1.5.
`CCOC(=O)C1=NN(c2ccc(Br)cc2)C2C(=O)N(c3ccc(Cl)cc3)C(=O)C12` (stereo not drawn) gave Measles inh -1.4.
Screening O=C(Cn1nnc(-c2ccc(F)cc2)n1)Nc1ccc2c(c1)OCO2 returned Measles inh 0.01.

Compounds listed so far that have an aryl methoxy group:
COc1ccc(S(=O)(=O)Nc2cc(C(=O)NCc3ccc4c(c3)OCO4)ccc2N2CCOCC2)cc1 was read as Measles inh -1.3.
For COc1ccc(CCNC(=O)C2CCN(S(=O)(=O)c3ccc(F)cc3)CC2)cc1OC the results were Measles inh 0.06.
For COc1ccc(NC(=O)c2sc3nc(-c4ccc(OC)cc4)cc(C(F)(F)F)c3c2N)cc1 the results were Measles inh 2.
COc1ccc(NC(=O)C2CCCN(S(=O)(=O)c3cccs3)C2)cc1 (stereo not drawn) was read as Measles inh -0.76.
COc1ccc(S(=O)(=O)N(CC(=O)N(C)Cc2ccccc2)c2ccc(C)cc2)cc1 was read as Measles inh -0.85.
For COc1ccc(S(=O)(=O)CCC(=O)N2CCN(c3cccc(C(F)(F)F)c3)CC2)cc1 the results were Measles inh 1.1.
Screening COc1ccc(-n2c(=O)c3ccccc3n(CC(=O)N3CCCCC3C)c2=O)cc1 (stereo not drawn) returned Measles inh 2.5.
`COc1ccccc1NC(=O)C1=C(C)Nc2nc3ccccc3n2C1c1cccc([N+](=O)[O-])c1` (stereo not drawn) gave Measles inh 0.71.

(more compounds)
For Cc1ccc(C(=O)Nc2ccc3nc(SCC(=O)Nc4ccccc4F)sc3c2)cc1 the results were Measles inh -0.12.
Screening Cc1nc(N2CCCCC2)c2c(C)c(C(=O)NC3CCCC(C)C3C)sc2n1 (stereo not drawn) returned Measles inh -0.48.
For COC(=O)C1=C(C)NC(=O)NC1c1cn(-c2ccccc2)nc1-c1ccc(OC)c(Cl)c1 (stereo not drawn) the results were Measles inh -0.39.
For COc1ccc2cc(C(=O)Nc3cccc(C(F)(F)F)c3)c(=N)oc2c1 the results were Measles inh -0.19.
Screening Cc1ccc(/C(O)=C2\C(=O)C(=O)N(CCO)C2c2ccc([N+](=O)[O-])cc2)cc1 (stereo not drawn) returned Measles inh -1.1.
CCOC(=O)c1c(NC(=O)COc2ccc(OC)cc2)sc2c1CCCC2 was read as Measles inh -0.44.
O=C(Cn1ccc2ccccc2c1=O)NCCC(=O)N1CCN(c2ccccc2)CC1 was read as Measles inh 0.33.
`COc1ccc(-c2nc(SCc3ccc(F)cc3)c3c(=O)n(C)c(=O)n(C)c3n2)cc1` gave Measles inh 0.32.
O=C1CCCN2N=C(SCC=Cc3ccccc3)SC2=N1 was read as Measles inh -0.28.
Screening Cc1ccc(C)c(N=Cc2c(C)c(Cl)c(C)c([N+](=O)[O-])c2O)c1 returned Measles inh 1.4.
CNC(=O)c1cc(Nc2ccccc2OC)nc2ccccc12 was read as Measles inh -0.38.
`COc1ccc(C2C=C(c3cccnc3)Nc3ncnn32)c(OC)c1` (stereo not drawn) gave Measles inh -0.46.
`CCOc1ccc(N2CC(C(=O)Nc3cccc(C)n3)CC2=O)cc1` (stereo not drawn) gave Measles inh 0.74.
`CNC(=O)C(O)C(O)C(=O)NC` (stereo not drawn) gave Measles inh 0.57.
CCN1C(=O)c2cccc3c(S(=O)(=O)NCc4cccnc4)ccc1c23 was read as Measles inh 0.36.
Screening Cc1onc(-c2ccccc2)c1C(=O)N1CCN(C)CC1 returned Measles inh 0.61.
For CCOc1cc2c(cc1OCC)C1C(C(=O)NCCOC)c3ccccc3C(=O)N1CC2 (stereo not drawn) the results were Measles inh 0.87.
NC(=O)C1CCN(C(=O)c2ccc3c(=O)n(C4CCCCC4)c(SCc4cccc(F)c4)nc3c2)CC1 was read as Measles inh 0.71.
`Cc1ccccc1N1C(=S)NC2c3ccccc3OC1(C)C2C(=O)N(C)C` (stereo not drawn) gave Measles inh 0.3.
O=C(Oc1ccc(C(=O)c2ccccc2)cc1)c1ccc(F)cc1 was read as Measles inh 0.9.
CC(O)Cc1n[nH]c(=S)n1-c1ccccc1 (stereo not drawn) was read as Measles inh 0.63.
For CCCCc1c(C)nc2c(OC)cccc2c1SCCC(=O)O the results were Measles inh -0.87.
For COc1ccccc1-c1csc(NC(=O)c2cccc(Oc3ccccc3)c2)n1 the results were Measles inh 2.
`COc1ccc(Nc2ncnc3c2cnn3-c2ccccc2)c(OC)c1` gave Measles inh -3.3*.
For Cc1ccc(C(=O)C2C(=O)c3ccccc3C2=O)cc1 the results were Measles inh 0.45.
`O=c1[nH]cnc2nc3n(c12)CCS3` gave Measles inh -0.14.
For CCS(=O)(=O)Nc1cccc(C2=NN(S(=O)(=O)CC)C(c3cccs3)C2)c1 (stereo not drawn) the results were Measles inh 2.
Screening Cc1sc2nc(-c3ccccc3Cl)n(CC#N)c(=O)c2c1C returned Measles inh -0.37.
CC(=O)Oc1ccc2c(=O)c(-c3csc(C)n3)coc2c1 was read as Measles inh 0.79.
For CC1=C(C(=O)OC2CCCCCC2)C(c2ccccc2F)C2=C(CC(C)(C)CC2=O)N1 (stereo not drawn) the results were Measles inh -0.49.
Cc1ccccc1NC(=O)c1c(NC(=O)c2ccc([N+](=O)[O-])cc2)sc2c1CCCCC2 was read as Measles inh 1.7.
COc1ccc(OCCCn2c(-c3ccc(Cl)cc3)nc3ccccc3c2=O)cc1 was read as Measles inh 0.01.
`Clc1cccc(C2Nc3ccccc3-c3nc4ccccc4n32)c1` (stereo not drawn) gave Measles inh 1.8.
`CCOC(=O)C1CCCN(c2cc(NCCCO)c([N+](=O)[O-])c3nonc23)C1` (stereo not drawn) gave Measles inh 1.1.
For COc1ccc(S(=O)(=O)N2CCN(C3CCC(C)CC3)CC2)cc1 (stereo not drawn) the results were Measles inh 0.07.
COc1cccc(N2CCN(C(=O)CCCC3=NS(=O)(=O)c4ccccc4N3)CC2)c1 was read as Measles inh 0.39.
For Cc1ccc(S(=O)(=O)N2CCSC2c2ccccc2Cl)cc1 (stereo not drawn) the results were Measles inh -0.17.
`CCC(=O)N1CCc2cc(Br)cc(S(=O)(=O)N3CCCC(C(=O)N4CCCCC4CC)C3)c21` (stereo not drawn) gave Measles inh -0.49.
For CCC(=O)Oc1ccc(C2C3=C(CC(C)(C)CC3=O)OC3=C2C(=O)CC(C)(C)C3)cc1OC the results were Measles inh 0.48.
Screening OC(CCc1ccccc1)(CCN1CCCCC1)c1ccccc1 (stereo not drawn) returned Measles inh 0.03.
`CCOc1cc2[nH]c(=S)n(C(C)C)c(=O)c2cc1OCC` gave Measles inh 0.95.
Screening CCOCCCNC(=O)c1cc(Nc2ccc(C)cc2C)nc2ccccc12 returned Measles inh 1.9.
`CC1(C)NC(=O)N(CC(O)CN(c2cccc3ccccc23)S(=O)(=O)c2ccccc2)C1=O` (stereo not drawn) gave Measles inh 0.23.
O=C1c2cccnc2C(=O)N1CCc1ccccc1 was read as Measles inh 0.69.
`COCCN1C(=O)c2ccccc2C(C(=O)NCC2CCCO2)C1c1c[nH]c2ccccc12` (stereo not drawn) gave Measles inh -1.7.
For OCCNCc1ccc(Cl)cc1 the results were Measles inh -0.67.
For O=C(CCS(=O)(=O)c1ccc(Cl)cc1)NC1CCCC1 the results were Measles inh 1.3.
For CN(C)C(=O)C1C2NC(=S)N(c3cccc(Cl)c3)C1(C)Oc1ccc(Cl)cc12 (stereo not drawn) the results were Measles inh -0.85.
Screening CCN(c1ccccc1)S(=O)(=O)c1ccc(F)c(C(=O)Nc2ccc(C(C)C)cc2)c1 returned Measles inh -0.61.

Bioassay records deposited in PubChem BioAssay by Emory University Molecular Libraries Screening Center.

These rows are one share of the data. The share of hits here may be higher or lower than overall.
